# Arbovirus anti = arbovirus infection inhibition. arbovirus infection cell-based antiviral screen. inhibition, % at 10 µM. 0.37% of 200,000 active;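 active means inhibition from about 30%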;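 further: bluetongue infection of BSR cells; cell survival read as ATP light after 72 h; 0% = infected wells without compound and 100% = uninfected wells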
# YopH inh = YopH (Yersinia) phosphatase inhibition | fluorescence Ex485/Em525 | inhibition, %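 (about 10 µM by stock and volumes)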 | 0.16% of 140,000 active;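 active means inhibition of 50% or more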;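 further: controls were vehicle for no effect and minimum signal wells for full effect; inactives centre near -20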
# Mtb growth = M. tuberculosis H37Rv growth inhibitors, H37Rv strain (AID 1626) | M. tuberculosis H37Rv growth inhibition; higher % means a stronger effect | inhibition, % at 10 µM, or IC50 in µM where a hit was titrated | 0.95% of 220,000 active;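 active means confirmed in a dose series; inconclusive means inhibition above 80% but not taken into the dose series; inactive means below 80% or under 30% at every dose of the series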;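 further: bacteria incubated seven days before Alamar blue readout; 0% = bacteria only wells and 100% = bacteria with antibiotic wells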
# Mtb betalactam = beta-lactam sensitization of Mtb H37Rv. M. tuberculosis H37Rv growth with meropenem, percent inhibition; hits of this screen are not shown here. inhibition, % at 25 µM. 0.27% of 330,000 active. AID 434955;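 active means about 74% or more and at least 40 points above the plate without the antibiotic, then above 30% in a dose series; inconclusive means first-round hits that could not be retested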;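 further: growth measured after seven days incubation then overnight dye step; 0% = bacteria only wells and 100% = bacteria with antibiotic; twin plates without the antibiotic show which effects depend on it; some results filed as inactive read as strong as hits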
# RecA intein inh = blocks M. tuberculosis RecA intein splicing; P9WHJ3; cell-free RecA intein splicing, fluorescence; inhibition, %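 (about 9 µM by stock and volumes)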; 0.75% of 290,000 active; in the data active means inhibition above about 30%; inconclusive means no clear call, values can overlap the other calls;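 further: 0% = vehicle wells and 100% = reference inhibitor control wells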
# Target sequence (P9WHJ3 whole entry, looked up): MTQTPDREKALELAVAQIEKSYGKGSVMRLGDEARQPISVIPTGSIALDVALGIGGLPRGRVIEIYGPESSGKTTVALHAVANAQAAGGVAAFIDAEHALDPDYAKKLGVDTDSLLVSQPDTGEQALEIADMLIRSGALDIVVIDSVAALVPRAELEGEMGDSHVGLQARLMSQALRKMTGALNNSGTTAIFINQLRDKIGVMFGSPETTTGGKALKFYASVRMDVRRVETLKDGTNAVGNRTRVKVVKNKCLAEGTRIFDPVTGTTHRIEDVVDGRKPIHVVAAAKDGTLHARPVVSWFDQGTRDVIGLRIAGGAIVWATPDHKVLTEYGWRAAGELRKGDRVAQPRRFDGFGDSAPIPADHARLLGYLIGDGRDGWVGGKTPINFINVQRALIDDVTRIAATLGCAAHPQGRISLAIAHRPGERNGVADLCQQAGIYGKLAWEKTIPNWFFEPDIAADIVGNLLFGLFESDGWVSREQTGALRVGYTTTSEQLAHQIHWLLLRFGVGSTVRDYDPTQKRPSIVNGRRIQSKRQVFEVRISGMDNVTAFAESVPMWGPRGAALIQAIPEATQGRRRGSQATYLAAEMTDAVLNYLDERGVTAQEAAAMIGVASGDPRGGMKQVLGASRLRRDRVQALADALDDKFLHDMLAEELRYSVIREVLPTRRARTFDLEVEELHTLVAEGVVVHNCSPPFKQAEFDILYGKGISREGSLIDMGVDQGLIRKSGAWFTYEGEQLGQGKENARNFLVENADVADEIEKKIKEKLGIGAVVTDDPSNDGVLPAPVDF
# Arbovirus anti repeat = also measured in Arbovirus anti; calls as there; inhibition, %; measured here: 10K subset replicate screen; many hits read low in the repeat;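 first of two repeat runs on a subset; 0% = infected and 100% = uninfected wells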
# * marks the source's active call; other numbers are inactive results; ? = inconclusive; / = not tested or not shown. Some of the compounds tested; rates above refer to the full screens.
# A first look, five compounds:
SMILES,Arbovirus anti,YopH inh,Mtb growth,Mtb betalactam,RecA intein inh,others
CCN1CCN(C(=O)Nc2ccc(Cc3ccc(NC(=O)N4CCN(CC)CC4)cc3)cc2)CC1,-6,-1,-12%,11,2.5,Arbovirus anti repeat=0
Cc1[nH]c2ccccc2c1/C=N/NC(=O)CNC(=O)COc1ccccc1,-2,/,10%,2,1.2,
NC(=O)c1ccc(NC(=O)COC(=O)/C=C/c2cn(-c3ccccc3)nc2-c2cccnc2)cc1,-15,-15,-7%,1,0.7,
COC(=O)Cc1csc(Nc2ccccc2)n1,-7,-12,2%,-6,3.1,
CC(C)N1C(=O)C2C(C(=O)NC3CCCCC3)C3C=CC2(O3)C1C(=O)NC1CCCCC1 (stereo unspecified),6,-26,-2%,-2,0.2,

# The listing, previewed entries included:
SMILES,Arbovirus anti,YopH inh,Mtb growth,Mtb betalactam,RecA intein inh,others
CCN1CCN(C(=O)Nc2ccc(Cc3ccc(NC(=O)N4CCN(CC)CC4)cc3)cc2)CC1,-6,-1,-12%,11,2.5,Arbovirus anti repeat=0
Cc1[nH]c2ccccc2c1/C=N/NC(=O)CNC(=O)COc1ccccc1,-2,/,10%,2,1.2,
NC(=O)c1ccc(NC(=O)COC(=O)/C=C/c2cn(-c3ccccc3)nc2-c2cccnc2)cc1,-15,-15,-7%,1,0.7,
COC(=O)Cc1csc(Nc2ccccc2)n1,-7,-12,2%,-6,3.1,
CC(C)N1C(=O)C2C(C(=O)NC3CCCCC3)C3C=CC2(O3)C1C(=O)NC1CCCCC1 (stereo unspecified),6,-26,-2%,-2,0.2,
CCOP(=O)(C#CC(C)(C)C)C(C)(O)c1ccccc1 (stereo unspecified),-1,-2,3%,-9,/,
CCCCCCCCCCCCCCCC(=O)OC[C@H](COP(=O)([O-])OCC[N+](C)(C)C)OC(=O)CCCCCCCCCCCCCCC,5,-28,-6%,/,3.7,
C=CCOc1nc2c(c(=O)n(C)c(=O)n2C)n1Cc1ccccc1Cl,15,-26,7%,17,3.8,
CC1(C)CC2(CCO1)OC(=O)CC2C(=O)NCc1ccccc1 (stereo unspecified),1,-53,-2%,1,-4.2,
COc1ccc(-c2nnc(SCC(C)C)o2)cc1,/,/,19%,13,1.8,
Cc1ccc(C(=O)N/C(=C\c2cccs2)C(=O)NCCc2c[nH]c3ccccc23)cc1,-21,-52,-3%,0,5.0,
CN(C)c1ccc(C=NCC2(O)CCOC(C)(C)C2)cc1 (stereo unspecified),-5,-5,-1%,-5,1.4,
NS(=O)(=O)c1ccc(CCNC(=O)c2ccccc2OCc2ccc(F)cc2)cc1,/,/,/,1,-1.1,
CCCCOC(=O)c1ccc(NC(=O)c2c(OC)cccc2OC)cc1,4,/,-7%,5,-1.2,
CCN(CC)S(=O)(=O)c1cc(OC)c(Cl)cc1OC,-7,/,-8%,2,-2.6,
O=C(c1cnc(-c2ccccc2)s1)c1ccc(Cl)cc1Cl,-15,-35,-3%,9,0.1,
O=C(CCc1ccc(S(=O)(=O)NC2CCCCC2)cc1)Nc1ccccc1,-2,0,2%,-5,-2.3,
CC(=O)Nc1ccc(NC(=O)CSc2nnnn2-c2ccccc2F)cc1,/,/,/,-2,-2.3,
Cc1cccc(NC(=O)c2cc(-c3c(C)cc(C)cc3O)n[nH]2)c1,/,/,/,1,-1.2,
O=[N+]([O-])c1ccccc1SNc1ccc(Br)cn1,2,/,2%,-5,1.5,
CC1CC(c2ccccc2)=Nc2ccccc2N1 (stereo unspecified),/,/,/,-2,-2.4,
O=C(Nc1ccc2nc3n(c(=O)c2c1)CCCCC3)C(=O)N1CCN(c2ccccc2F)CC1,/,/,/,0,5.6,
CCOc1cc(-c2nc(-c3ccccc3)c(-c3cc([N+](=O)[O-])ccc3C)[nH]2)ccc1O,-22,-12,-3%,26,22,
c1ccc(-c2c[nH]c3[n+]2CCCCC3)cc1,0,7,1%,-4,-1.0,
CCCN(CCC)c1ccc(CC(=O)NC(C)Cc2ccccc2)cc1 (stereo unspecified),-20,0,8%,-3,5.0,
# (listing goes on)
SMILES,Arbovirus anti,YopH inh,Mtb growth,Mtb betalactam,RecA intein inh,others
CCC(CC)N1CCN(C(=O)c2cccc(Cl)c2)CC1,/,/,/,-1,1.2,
C/C=C/COC(=O)c1[nH]c2c(c1C)C(=O)CC(c1ccc(N(C)C)cc1)C2 (stereo unspecified),-7,-20,?,?,4.4,Arbovirus anti repeat=-1
COCCNC(=O)C(=O)Nc1cc2c3c(c1)CC(=O)N3CCC2,/,/,/,-6,-1.9,
Cc1cc(OCC(=O)Nc2ccc3c(c2)OCCO3)cc(C)c1Cl,2,5,6%,-11,1.8,
O=C(Nc1ccc(C(F)(F)F)cc1)C1CC(=O)N(c2ccc3c(c2)OCCO3)C1 (stereo unspecified),-4,-3,-4%,-10,-4.0,
CCN(CC)S(=O)(=O)c1ccc(N2CCOCC2)c(NC(=O)c2cc3ccccc3oc2=O)c1,/,/,/,3,3.0,
NNC(=S)Nc1c(F)cc(F)cc1Br,/,/,-4%,-2,-4.6,
CC(NC(=O)c1ccc(CS(=O)(=O)c2ccc(Cl)cc2)o1)c1ccc2c(c1)OCCO2 (stereo unspecified),12,-10,-2%,-6,4.2,
CN1CCN(c2ccc([N+](=O)[O-])c3cccnc23)CC1,3,-8,/,-9,4.0,
Cc1ccc(S(=O)(=O)N2CCN(C(=O)c3c(-c4ccccc4)noc3C)CC2)cc1C,/,/,/,4,-0.2,
CCOc1ccccc1N(C)C(=O)c1cn(C)c(=O)c2ccccc12,/,/,/,4,0.3,
CSc1cccc(NS(=O)(=O)c2ccc(C(C)=O)cc2)c1,/,/,11%,-2,2.7,
COc1c2ccoc2c(OCC=C(C)C)c2oc(=O)ccc12,-7,-3,-13%,-8,0.4,
O=C(OCc1ccccc1)N1CCCC1/C=C/CN1CCOCC1 (stereo unspecified),11,/,4%,1,1.2,
COc1ccc(Cc2nnc(N/N=C/c3ccc(C)o3)[nH]c2=O)cc1,-7,/,-5%,4,1.5,
COC(=O)c1c(-c2ccccc2)noc1C,-3,/,-3%,-4,-1.1,
Cc1cc(C)nc(NC(=O)c2cccc([N+](=O)[O-])c2)c1,-7,-2,2%,5,-1.9,
CCOc1ccc(N2C(=O)C(=O)/C(=C(/O)c3ccccc3)C2c2ccccc2[N+](=O)[O-])cc1 (stereo unspecified),/,/,-13%,34,-0.8,
Cc1cccc(C(=O)N2CCCC(N3CCN(c4ccccc4F)CC3)C2)n1 (stereo unspecified),/,/,/,-13,-1.7,
COc1cc(SC)ccc1C(=O)N(CC(=O)Nc1ccccc1Br)Cc1ccco1,/,/,/,-10,0.0,
Cc1cccc(N2CCN(C(=O)CCn3c(=O)[nH]c4ccsc4c3=O)CC2C)c1 (stereo unspecified),/,/,/,1,-0.3,
O=C(O)CCCCCNCc1c(Cl)cccc1Cl,/,/,4%,-4,3.5,
COc1cccc(OC)c1Nc1nc(C)nc2c1nnn2Cc1ccccc1Cl,-8,/,2%,2,-3.1,
CNC(=O)/C(C#N)=C/c1cccc(Oc2ccccc2)c1,/,/,-5%,-6,15,
O=C(COC(=O)c1ccccc1OCC(=O)Nc1ccc(Br)cc1)Nc1ccccc1,-15,-28,5%,3,-3.5,
# Further entries.
SMILES,Arbovirus anti,YopH inh,Mtb growth,Mtb betalactam,RecA intein inh,others
S=C(NCc1ccco1)N1CCN(C/C=C/c2ccccc2)CC1,18,/,10%,-4,1.2,
CCCNS(=O)(=O)c1ccc2c(c1)n(C)c(=O)n2C,-8,/,-6%,-5,-0.7,
COc1cc(NC(=O)CCc2ccccc2)c(C(=O)O)cc1OC,-1,-37,-11%,2,0.8,
O=C1c2ccccc2S(=O)(=O)c2cc(N3CCOCC3)ccc21,/,/,-3%,8,-14,
N#Cc1ccc(Nc2ccccc2)c(N)c1,5,-4,3%,0,-1.6,
O=C(CNC(=O)c1ccc(Br)o1)NCc1ccc(F)cc1,/,/,/,2,0.3,
OC(c1cccc(Cl)c1)(c1cccc(Cl)c1)C1CN2CCC1CC2 (stereo unspecified),-36,/,1%,30,0.3,
CCOC(=O)c1cnc2c(ccc3ccccc32)c1NCCN(C)C,/,/,/,1,0.7,
COc1ccc(/C=N/NC(=O)CSc2ccccn2)cc1OC,/,/,-5%,-1,-1.3,
O=C1NC(=S)NC(=O)C1=Cc1ccc2c(c1)CCN2CCCCl,/,/,-5%,6,1.8,
CN(C1CC(C)(C)N(O)C(C)(C)C1)S(=O)(=O)CC12CCC(CC1=O)C2(C)C (stereo unspecified),-1,/,3%,2,-2.3,
CCN(CC)S(=O)(=O)c1cccc(C(=O)N/N=C2\CC(=O)CC(C)(C)C2)c1,5,/,2%,-5,-4.0,
CC(C)(CN1CCN(Cc2ccccc2)CC1)NS(=O)(=O)c1ccccc1,/,/,4%,-6,-4.6,
Cc1ccc(-c2cc(C(=O)NCC3CCCO3)c3ccccc3n2)cc1C (stereo unspecified),22,/,4%,20,-2.1,
COc1ccccc1N1CCN(C(=O)c2oc3c(c2C)C(=O)CC(C)(C)C3)CC1,/,/,/,?,2.1,
C=CCNS(=O)(=O)c1sccc1/C=N/O,-5,-23,5%,-9,2.5,
CCOc1cc(C2NC(=O)c3ccccc3O2)ccc1OC(C)C (stereo unspecified),/,/,/,-7,0.1,
CCOc1cccc(CNCCO)c1OCc1ccc(Cl)cc1Cl,-13,-7,8%,9,-1.0,
CCN1C(=NCC(C)C)N[C@@H](CCc2ccccc2)[C@H](C(=O)NCC(C)C)[C@H]1C,/,/,/,-10,0.2,
CC(C)(C)c1ccc(/C=C2\Oc3c(ccc(O)c3CN3CCN(CCO)CC3)C2=O)cc1,/,/,-4%,3,-15,
COc1cc(Cl)c(CN2CCCC(CO)(Cc3cccc(Cl)c3)C2)cc1OC (stereo unspecified),/,/,/,10,-2.4,
CN(CC(=O)NC1CCCCC1)S(=O)(=O)c1cccc2nsnc12,8,-29,-6%,-1,0.0,
Cc1cccc2sc(N(CCCN(C)C)C(=O)c3sc4ccccc4c3Cl)nc12,10,-35,-6%,-10,/,
CCCS(=O)(=O)c1cnc(C2COc3ccccc3O2)nc1N (stereo unspecified),/,/,/,-8,-1.3,
O=c1[nH]c2cc3c(cc2cc1CN(Cc1cccnc1)Cc1nnnn1Cc1ccco1)OCCO3,6,5,-5%,18,2.2,

# Some of these compounds in order of length of the SMILES, smallest number first:
SMILES,Arbovirus anti,YopH inh,Mtb growth,Mtb betalactam,RecA intein inh,others
Cc1cccc(C(=O)N2CCCC(N3CCN(c4ccccc4F)CC3)C2)n1 (stereo unspecified),/,/,/,-13,-1.7,
NS(=O)(=O)c1ccc(CCNC(=O)c2ccccc2OCc2ccc(F)cc2)cc1,/,/,/,1,-1.1,
CC(NC(=O)c1ccc(CS(=O)(=O)c2ccc(Cl)cc2)o1)c1ccc2c(c1)OCCO2 (stereo unspecified),12,-10,-2%,-6,4.2,

# New compounds follow.
SMILES,Arbovirus anti,YopH inh,Mtb growth,Mtb betalactam,RecA intein inh,others
CSc1nc2c(c(=O)[nH]1)C(c1ccc(Br)cc1)CC(=O)N2 (stereo unspecified),3,/,2%,6,2.1,
COc1ccc(CN2CCC(c3nc4ccc(Cl)cc4[nH]3)CC2)cc1,-6,/,11%,-2,/,
COc1ccc(N2CCN(C(=O)Cn3nnc(-c4ccc(OC)c(OC)c4)n3)CC2)cc1,-12,7,-3%,-11,/,
CC(C(=O)Nc1ccc2c(c1)OCCO2)c1ccc([N+](=O)[O-])cc1 (stereo unspecified),4,-54,5%,2,0.6,
O=C(CSc1ncn[nH]1)Nc1ccc(S(=O)(=O)N2CCCC2)cc1,8,-11,-6%,3,0.7,
COc1ccc(OCc2cc(C(=O)N(C)CC3CCCCO3)no2)c(Cl)c1 (stereo unspecified),/,/,/,?,2.3,
O=C(O/N=C\c1ccc(N2CCCCC2)c([N+](=O)[O-])c1)c1c(F)cccc1F,11,-13,?,98,3.1,
CN1C(=O)c2ccc(NC(=O)C3CCCCC3)cc2C1=O,15,-21,-6%,-2,-4.5,
COc1ccc(OC)c(NC(=O)CN(c2ccc(C)cc2)S(=O)(=O)c2c(C)noc2C)c1,-1,-31,9%,-4,1.3,
CCOC(=O)c1c(NC(=O)CNCC(O)CO)sc(C)c1C (stereo unspecified),8,-6,5%,-5,8.1,
C=C(C)CNC(=S)NNC(=O)CCn1c2cc(Cl)ccc2c2ccc(Cl)cc21,-15,-15,0%,0,2.5,
Cc1cccc(C(=O)Nc2nnc(SCC(=O)NCc3ccco3)s2)c1,/,/,/,?,-3.4,
CCC1(CC)NC(=O)N(CC(=O)OCC(=O)Nc2ccc(C(F)(F)F)cc2)C1=O,1,17,/,-8,-7.2,
Cc1sc(NC(=S)NC(=O)C(C)(C)C)c(C(N)=O)c1C,-12,-60,3%,7,-2.5,
Cc1ccc(S(=O)(=O)N2CCN(C(=O)CC(C)n3nc(C)c(Cl)c3C)CC2)cc1C (stereo unspecified),/,/,/,-8,0.0,
COCCCN1C(=O)C(=O)/C(=C(/O)c2ccc(S(=O)(=O)N3CCOCC3)cc2)C1c1ccc(F)cc1 (stereo unspecified),/,/,/,-4,3.1,
